Screening results as filed in PubChem BioAssay.
Mtb H37Rv: Mycobacterium tuberculosis H37Rv growth inhibition, cell based, confirmatory dose response (AID 1949); inhibition, % at 10 µg/mL, or IC50 in µg/mL where a hit was titrated; most inactive calls were filed without a number and no value below 0 was filed; hit rate 1.6% among 100,000;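 active = confirmed in a dose series; inconclusive = about 50% or more but not retested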;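 note: bacteria grown 7 days with compound before Alamar blue readout; 0% = untreated bacteria and 100% = reference antibiotic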
An asterisk follows results filed as active; i = inactive; u = inconclusive. The list is partial, so the mix of outcomes need not match the whole.

SMILES | Mtb H37Rv
O=C(Nc1ccc(Br)cc1)c1c2c(nc3ccccc13)CCCC2 | i
CN(Cc1ccccc1)S(=O)(=O)Cc1ccccc1 | 0%
Cc1ccc(S(=O)(=O)N(CC(=O)N2CCOCC2)Cc2ccccc2Cl)cc1 | 1%
NS(=O)(=O)c1ccc(NC(=S)N2CCC(O)CC2)cc1 | i
Cc1ccc(C(=O)Nc2ccc(C)cc2NC(=O)c2ccc(C)cc2)cc1 | 1%
COc1cc(C)c(C(C)C)cc1S(=O)(=O)N1CCCC(C)C1 (stereo not drawn) | i
CC(=O)Nc1ccc(NC(=O)c2ccc(C#CC3(O)CCCCC3)cc2)cc1 | i
COC(=O)c1cn(CC(=O)NCc2ccco2)c2ccccc12 | i
COCCN1C(=O)C(O)=C(C(=O)c2ccc(C)o2)C1c1cccc(Br)c1 (stereo not drawn) | 2%
Cc1nc(N2CCOCC2)[nH]c(=O)c1CCC(C)C | i
CS(=O)(=O)N(Cc1ccc(C(=O)N2CCCC2)cc1)c1ccccc1 | i
O=C(NCc1ccccc1)c1ccc(Br)cc1 | i
O=C(CCc1ccccc1)Nc1nc2n(n1)C(c1ccccc1)C=C(c1ccccc1)N2 (stereo not drawn) | i
COc1ccc(CN(CCC(c2ccccc2)C2CCOC(C)(C)C2)C(C)=O)cc1 (stereo not drawn) | i
CCOc1ccc2nc(NC(=O)CSc3nnc(C)s3)sc2c1 | i

Three entries out of the list, ordered by count of non-hydrogen atoms, rising.
SMILES | Mtb H37Rv
COc1cc(C)c(C(C)C)cc1S(=O)(=O)N1CCCC(C)C1 (stereo not drawn) | i
COCCN1C(=O)C(O)=C(C(=O)c2ccc(C)o2)C1c1cccc(Br)c1 (stereo not drawn) | 2%
Cc1ccc(C(=O)Nc2ccc(C)cc2NC(=O)c2ccc(C)cc2)cc1 | 1%

(list continues)
SMILES | Mtb H37Rv
Cc1cc(Cl)ccc1NC(=S)NC1CCCCC1 | 2%
COC(=O)c1c(-c2ccncc2)csc1NC(=O)c1ccoc1C | 4%
COc1cc(C=O)cc(OC)c1OCc1ccc2c(c1)OCO2 | 4%
Cc1cc(Br)ccc1OCC(=O)Nc1cccc([N+](=O)[O-])c1 | i
O=C(Cn1cc(CO)c2ccccc21)Nc1ccc(Cl)cc1 | 9%
O=C1CC(c2ccc(F)c(F)c2)c2cc(Br)c3ccccc3c2N1 (stereo not drawn) | i
COc1ccc2cc(C(=O)NCc3ccco3)c(=O)oc2c1 | i
O=C(O)c1ccc(NC(=O)c2cn(-c3ccccc3)nc2-c2cc3ccccc3o2)cc1 | i
COc1cccc(OCC(O)CN2CCC(Cc3ccccc3)CC2)c1 (stereo not drawn) | i
N#CCCn1cc(C(CC(=O)c2ccccc2)C(=O)O)c2ccccc21 (stereo not drawn) | i
CC(=O)Oc1ccc2c(=O)c(Oc3ccc(-c4ccccc4)cc3)coc2c1 | i
N/C(=N\OC(=O)c1ccc(Cl)c(Cl)c1)c1ccccn1 | u
CCc1ccc(OCc2nnc(SCC(=O)Nc3cc(C(F)(F)F)ccc3Cl)o2)cc1 | i
Cc1ccc(S(=O)(=O)Nc2ccc(S(=O)(=O)NC(C)(C)C)cc2)cc1 | i
COc1cc(Cl)cc(C=O)c1OCC(=O)O | i
N#Cc1ccccc1COc1ccc(CO)cc1 | i
COc1ccc(N(CC(=O)Nc2cccc(Br)c2)S(=O)(=O)c2ccc(F)cc2)cc1 | i
CCOc1ccc(NC(=S)NC(NC(=O)c2cccc(Cl)c2)C(Cl)(Cl)Cl)cc1 (stereo not drawn) | 4%
CCN(c1ccccc1)c1c([N+](=O)[O-])ccc2nonc12 | 9%
N#Cc1cc2c([nH]c1=S)CCCCCC2 | 2%
COc1cc(CNCCO)cc(Cl)c1OCc1ccccc1Cl | 34%
COCCCNC(=O)c1ccc(N(C)S(C)(=O)=O)cc1 | i
COc1ccc(C(=O)Nc2ccccc2C(=O)Nc2ccc(F)cc2)cc1 | i
COc1ccc(C(=O)Oc2ccc3ccccc3c2)cc1Br | i
CC12CCC(C(=O)N3CCc4ccccc4C3)(OC1=O)C2(C)C (stereo not drawn) | 20%
CC1=NN(c2ccc(F)cc2)C(=O)/C1=C\c1ccc(N(C)C)cc1 | i
O=C(Nc1nnc(COc2ccc(Cl)cc2)s1)C1c2ccccc2Oc2ccccc21 | 22%
Cc1cccc(OCC(=O)Nc2ccc(S(=O)(=O)N(C)Cc3ccccc3)cc2)c1 | i
CC(C)c1ccc(OCC(=O)Nc2ccc(S(=O)(=O)NC3CCCCC3)cc2)cc1 | i
CN1CCN(C(=O)c2cnn(-c3ccccc3)c2NC(=O)c2ccccc2Cl)CC1 | i
O=C(CCC1CCCC1)N1CCN(C(=O)c2ccc([N+](=O)[O-])cc2)CC1 | i
COCC(=O)Nc1sc2c(c1C(=O)OC)CCC2 | 43%
CCCCCCN(CCCCCC)C(=S)Nc1ccc(S(N)(=O)=O)cc1 | i
Cc1ccc(NC(=O)CSc2nnc(Cc3ccccc3)n2C)cc1 | i
Cc1ccc(Cl)cc1N1CCN(C(=O)CN(c2cccc(Cl)c2Cl)S(C)(=O)=O)CC1 | 4%
COc1ccc(S(=O)(=O)N2CCN(c3cccc(Cl)c3Cl)CC2)c(C)c1C | i
COC(=O)CSc1[nH]c2ccccc2c1[N+](=O)[O-] | 8%
COC(=O)c1c(NC(=O)CCN2C(=O)c3ccccc3C2=O)sc2c1C(C(=O)OC)CC2 (stereo not drawn) | i
Cc1ccc(Cl)cc1NC(=O)c1ccc(Cn2cc(Cl)cn2)cc1 | u
O=[N+]([O-])c1ccc(N2CCN(S(=O)(=O)Cc3ccccc3)CC2)cc1N1CCc2ccccc2C1 | 1%
CC1(C)CC(=O)C2=C(C1)Nc1ccccc1NC2c1cc(Cl)ccc1O (stereo not drawn) | i
COCCCNC(=S)NNC(=O)c1cccnc1 | i
COc1ccc(C2(CNCc3ccccc3)CCCC2)cc1OC | 1%
Cc1ccccc1C(=O)Nc1ccc(Br)cc1 | i
COCCOCCn1c(/C=C/c2ccccc2)nc2ccccc21 | 3%
CC(SCc1ccccc1)C(=O)NCCC1=CCCCC1 (stereo not drawn) | 1%
CCC(=O)N1N=C(c2ccc(C)o2)CC1c1ccc(N(C)C)cc1 (stereo not drawn) | i
CC(C)COc1cccc(C(=O)NC(=S)NCc2cccnc2)c1 | i
Cc1ccc(NC(=O)CSCCO)cc1C | i
CC1(C)CC(=O)C2=C(C1)Nc1ccccc1NC2c1ccccn1 (stereo not drawn) | i
CCN(CC)C(=O)Oc1ccc(NC(=O)N2CCOCC2)cc1 | i
COC(=O)C1=CN(CCc2ccc(F)cc2)C=C(C(=O)OC)C1c1ccc(C(F)(F)F)cc1 | i
O=C(COc1cc2oc(=O)cc(-c3ccccc3)c2cc1Cl)c1ccccc1 | i
COc1ccc(N(C=O)C(C(=O)Nc2c(C)cccc2C)c2ccc(Cl)cc2)cc1 (stereo not drawn) | i
Cc1ccc(C(=O)NC2CCC(NC(=O)c3ccc(C)o3)CC2)o1 (stereo not drawn) | i
Brc1ccccc1OCCCCN1CCCCCC1 | i
COc1ccc(C2(C(=O)NCc3ccccc3)CCOCC2)cc1 | i
C=CCn1c(SCC(=O)Nc2cccc(SC)c2)nnc1-c1ccccc1C | i
CCOc1ccc(NC(=O)CN2C(=O)C(=O)c3ccccc32)cc1 | i
COc1ccc(CNC(=O)C2Cc3ccccc3CN2S(=O)(=O)c2ccc(OC)c(OC)c2)cc1 (stereo not drawn) | i

Fetched one by one from the entries so far, 2 records:
SMILES | Mtb H37Rv
CCOc1ccc(NC(=O)CN2C(=O)C(=O)c3ccccc32)cc1 | i
COc1ccc(CNC(=O)C2Cc3ccccc3CN2S(=O)(=O)c2ccc(OC)c(OC)c2)cc1 (stereo not drawn) | i

Going on with the list:
SMILES | Mtb H37Rv
CC(C)(C)c1ccccc1OCC(=O)Nc1nc(-c2ccc([N+](=O)[O-])cc2)cs1 | 2%
CC(C)CC(C(=O)Nc1ccc(S(=O)(=O)Nc2ccccn2)cc1)N1C(=O)c2ccccc2C1=O (stereo not drawn) | 0%
CC(=O)c1cccc(NC(=S)N2CCN(c3ccccc3F)CC2)c1 | i
CCN(CC)c1ccc(NC(=O)c2cccc(OC)c2)c(C)c1 | i
COc1ccc(-c2csc(NC(=S)NC(=O)c3ccc(-c4ccccc4)cc3)n2)cc1 | i
CC1CCc2nc(NC(=O)Nc3ccc(Cl)cc3Cl)sc2C1 (stereo not drawn) | 18%
O=C(Nc1ccccc1C(=O)N1CCOCC1)c1ccc(CSc2ccccc2)cc1 | i
CCOC(=O)C1CCCN(S(=O)(=O)c2cc(Cl)c(OC)cc2Cl)C1 (stereo not drawn) | i
COc1ccc(OC(C)C(=O)Nc2ccc(I)cc2)cc1 (stereo not drawn) | 0.32µg/mL*
COc1ccc(OC(=O)c2ccc(C)c(Br)c2)cc1 | 16%
COC(C)(C)C#CC(=O)c1cccc2ccccc12 | 2.8µg/mL*
CCCNC(=O)c1ccc(CSc2ccc(Cl)cc2)cc1 | 40%
Cc1ccccc1OCC(=O)Nc1ccccc1C(=O)O | 7%
COCC(=O)Oc1ccc2c(C)cc(=O)oc2c1 | i
CCOC(=O)C1CCN(S(=O)(=O)c2ccc(Cl)s2)CC1 | i
CCCc1cc(C(=O)NCCc2ccc(OC)c(OC)c2)cs1 | i
CC(C)CN1C(=O)c2ccc(C(=O)NCc3cccnc3)cc2C1=O | 9%
COc1cc2c(c(OC)c1OC)C(c1cc(C)ccc1C)CC(=O)N2 (stereo not drawn) | i
CCOC(=O)N1CCN(C(=S)Nc2ccccc2C)CC1 | i
Clc1ccccc1-c1nnc2sc(-c3cccnc3)nn12 | i
CN1CCN(c2ccc(NC(=O)c3ccc(-c4ccc(Br)cc4)o3)cc2)CC1 | 2.9µg/mL*
O=C(COc1ccc(C2CCCCC2)cc1)Nc1ccc2c(c1)OCCO2 | i
COc1ccccc1CC(=O)Nc1cc(F)cc(F)c1 | i
COc1cc(NC(=O)c2cc(Br)ccc2OC)c(C(=O)O)cc1OC | i
Cc1c(C(=O)Nc2ccccc2C(=O)NCCc2ccccc2)cccc1[N+](=O)[O-] | i
C=CCN(c1ccc(C(=O)Nc2ccc(OC)cc2)cc1)S(C)(=O)=O | i
CCCCN1C(=O)N(C)C2NC(=O)NC21 (stereo not drawn) | i
CSc1ccccc1NS(=O)(=O)c1ccc(C)c([N+](=O)[O-])c1 | i
NC(=O)CC(NSc1ccccc1[N+](=O)[O-])C(=O)O (stereo not drawn) | i
COc1ccc(NC(=O)CN(c2ccc(Br)c(C)c2)S(C)(=O)=O)cc1OC | i
CN(C)c1ccc(NC(=O)Cn2cnc3c2c(=O)n(C)c(=O)n3C)cc1 | i
COC(=O)c1c(NC(=O)C23CC4CC(CC(C4)C2)C3)sc(C(=O)N(C)C)c1C | i
CN(C)c1ccc(C(=S)N2CCN(C(=S)Nc3ccc(Cl)cc3)CC2)cc1 | i
O=C(c1sc2cc(F)ccc2c1Cl)N1CCN(c2cccc(Cl)c2)CC1 | 4%
CCc1ccc(N(CC(=O)Nc2ccc(I)cc2C)S(C)(=O)=O)cc1 | i
CCN(CC)C(=O)CC(c1ccccc1)c1ccc(OC(C)C)cc1 (stereo not drawn) | i
CC(C)(CO)NCc1ccccc1OCc1ccccc1 | 2%
O=C(Nc1nnc(C(F)(F)F)s1)c1cccnc1 | 28%
COc1ccc(NC(=S)Nc2ccccc2Oc2ccccc2)cc1 | i
COc1ccc(CN2CCN(Cc3ccco3)CC2)cc1OC | 1%
CC(=O)Nc1nc(Sc2nc3c(c(=O)n(C)c(=O)n3C)n2Cc2ccccc2Cl)n[nH]1 | i
CC(=O)Oc1ccc2c(=O)c(-c3ccccc3Cl)c(C)oc2c1C | i
O=C(NC1CCCC1)c1ccc(OCc2ccccc2)cc1 | i
O=C(Oc1cccc(/C=c2\sc3nc4ccccc4n3c2=O)c1)c1cccs1 | i
O=S(=O)(c1ccc(-c2ccc(Cl)cc2)cc1)N1CCCC1 | i
CCOC(=O)c1c(NC(=S)N2CCN(S(C)(=O)=O)CC2)sc2c1CCCC2 | i
O=C(Nc1ccc2c(c1)CCC2)c1ccc(Br)s1 | 1.4µg/mL*
COc1cccc(-c2noc(CCc3ccccc3)n2)c1 | 5%
COc1cc(C(=O)NC(=S)Nc2ccccc2I)cc(OC)c1OC | 3%
CC1CCC(NC(=O)c2cncc(Br)c2)CC1 (stereo not drawn) | i
O=C(Nc1nc2ccccc2[nH]1)C1c2ccccc2Oc2ccccc21 | 54%
O=C1c2cccc3cccc(c23)C(=O)N1CCS(=O)(=O)OCC(F)(F)F | i
O=C1CCCC2=C1C(c1cccc([N+](=O)[O-])c1)n1nc(-c3ccccc3Cl)nc1N2 (stereo not drawn) | 21%
Cc1cc(C)nc(SCc2nnc(SC/C=C/c3ccccc3)o2)n1 | 8%
CC(=O)c1ccc(NC(=O)Nc2ccc(CC(=O)O)cc2)cc1 | i
O=C(NC(=S)Nc1ccc(F)c(Cl)c1)c1cccc(Cl)c1 | i
Cc1c(C(=O)OC(C)C)sc2ncn(CC(=O)NCc3ccccc3)c(=O)c12 | i

Taken from above.
`O=C(Nc1nc2ccccc2[nH]1)C1c2ccccc2Oc2ccccc21` in Mtb H37Rv: 54%
`O=C(Nc1ccc2c(c1)CCC2)c1ccc(Br)s1` in Mtb H37Rv: 1.4µg/mL*
`COc1cc(C(=O)NC(=S)Nc2ccccc2I)cc(OC)c1OC` in Mtb H37Rv: 3%

Among those listed so far, 3 contain a cyano group:
SMILES | Mtb H37Rv
N#CCCn1cc(C(CC(=O)c2ccccc2)C(=O)O)c2ccccc21 (stereo not drawn) | i
N#Cc1ccccc1COc1ccc(CO)cc1 | i
N#Cc1cc2c([nH]c1=S)CCCCCC2 | 2%
